Compound activity from PubChem.
HCMV UL50-53 inh = disrupts HCMV UL50-UL53 complex binding. HTRF UL50-UL53 interaction, normalized percent inhibition. inhibition, % (test concentration not listed). 0.15% of 190,000 active. AID 1918969;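 active = both replicates at 50% or more, plus weaker picks with an unusually low signal ratio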;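 note: stock transfer was 100 nL into about 20 µL; 0% = negative control wells and 100% = wells with untagged competitor protein; inactives centre near -12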
GIV Gai3 FP = GIV-Galpha-i interaction inhibition; P08753; Galpha-i3/FITC-GIV peptide fluorescence polarization, 90 min; active compounds read low; scaled: aluminum fluoride 0%, vehicle 100%; percent of control (FP), % (test concentration not listed); 0.42% of 210,000 active;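 active = replicate mean at 85% of control or lower, very high polarization wells dropped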;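 note: lower values mean more displacement of the GIV peptide from Galpha-i3; wells of about 15 µL received 100 nL stock; the first replicate is given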
Target sequence (P08753 whole entry, looked up): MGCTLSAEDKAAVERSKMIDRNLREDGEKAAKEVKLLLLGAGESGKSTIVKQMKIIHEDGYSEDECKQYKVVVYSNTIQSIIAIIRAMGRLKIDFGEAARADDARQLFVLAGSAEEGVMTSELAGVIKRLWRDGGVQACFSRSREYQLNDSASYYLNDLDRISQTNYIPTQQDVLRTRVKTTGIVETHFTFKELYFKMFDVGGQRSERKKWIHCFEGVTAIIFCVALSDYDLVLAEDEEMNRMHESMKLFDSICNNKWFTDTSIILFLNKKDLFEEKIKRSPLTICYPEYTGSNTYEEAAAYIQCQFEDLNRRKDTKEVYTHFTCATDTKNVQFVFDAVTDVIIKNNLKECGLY
Sa growth 42C = S. aureus growth inhibition; S. aureus RN4220 growth, OD600, 20 h, 42 °C; active compounds read low; 0.53% of 170,000 active; relative growth, % (test concentration not listed); AID 720641;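 active = growth at 42 °C up to 50% and 20 or more points under that at 30 °C, or under 10% at both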;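 note: 300 nL library stock went into each well; scaled to the means of positive and negative controls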
Sa growth 42C second temp = further read-out of Sa growth 42C, marked with its call; relative growth, %; measured here: growth at 30 °C;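 optical density after 20 h as mean of two plates; 100% = untreated growth and lower means inhibition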
Numbers without * were called inactive; · = not tested or not shown; & = joins results of further samples.

#1 S=c1nc[nH]c2c1sc1nc(N3CCOCC3)c3c(c12)CCCC3
#2 CCn1c(=O)n(-c2ccc3c(c2)OCO3)c2nc(-c3cc(OC)ccc3OC)nc(C(N)=O)c21
#3 N#Cc1c(-c2ccccc2)oc2c1C(=O)c1ccccc1C2=O
#4 CC1(C)CC(=O)C(N=Nc2ccccc2C(F)(F)F)=C(O)C1
#5 O=C(NC(N1CCOCC1)(C(F)(F)F)C(F)(F)F)c1ccccc1
#6 CCCCOc1ccc(C(=O)N2CCCCC2CCN2CCOCC2)cc1 (stereo unspecified)
Screen / compound no.	1	2	3	4	5	6
HCMV UL50-53 inh	·	0.9	·	-124.7	1.7	-27.6
GIV Gai3 FP	105.5	98.9	99.1	107.1	·	102.8
Sa growth 42C	111.6	96.8	78.1	101.3	96.4	100.0
Sa growth 42C second temp	79.5	93.9	51.4	79.9	85.8	85.7

#7 CCCNC(=O)c1ccc(OCC)cc1
#8 CCc1c(C)nc2nc(-c3ccccc3)nn2c1NCc1ccc2c(c1)OCO2
#9 COc1ccc(CCNC(=O)CCc2nnc3n(Cc4ccccc4)c(=O)c4ccccc4n23)cc1OC
#10 CCCCc1ncc(CO)[nH]1
#11 Cc1ccc2c(c1)c(=O)n(CC(C)C)c1nnc(SCc3ccc(Cl)cc3)n21
#12 O=C(COC(=O)c1ccc(Oc2ccccc2)cc1)NCc1ccccc1
Screen / compound no.	7	8	9	10	11	12
HCMV UL50-53 inh	4.6	-16.2	-23.2	4.1	-21.6	17.6
GIV Gai3 FP	·	105.2	99.4	102.5	97.5	·
Sa growth 42C	99.8	·	·	100.6	·	105.8
Sa growth 42C second temp	94.7	·	·	78.8	·	104.1

#13 CC1CCCN(CCCNC(=O)c2ccc3c(c2)N(Cc2cccc(Cl)c2)C(=O)c2ccccc2S3(=O)=O)C1 (stereo unspecified)
#14 CCN(Cc1ccccc1)C(=O)CSc1nc2ccccc2c2nc3ccccc3n12
#15 Cn1c(=O)c2c(-c3ccc(Br)cc3)n3c(c2n(C)c1=O)C(c1ccc(O)c(O)c1)OCC3 (stereo unspecified)
#16 O=C(CCc1nc2sc3c(c2c(=O)[nH]1)CCCC3)Nc1ccc(F)cc1F
#17 O=C(c1cnn2c(C(F)(F)F)cc(-c3ccccc3)nc12)N1CCN(c2ccccc2)CC1
#18 Cc1ccc2nc(-c3ccc(S(=O)(=O)N(C)C)cc3)cn2c1
Screen / compound no.	13	14	15	16	17	18
HCMV UL50-53 inh	·	·	-4.5	-21.0	-25.0&-16.0	-20.6
GIV Gai3 FP	102.4	105.1	103.2	98.0	100.2&101.1	·
Sa growth 42C	110.1	98.7	·	·	100.5	109.5
Sa growth 42C second temp	50.5	97.4	·	·	81.5	85.0

#19 O=C(CSc1nnc(-c2ccccn2)c(-c2ccccn2)n1)c1ccc(N2CCCC2=O)cc1
#20 CC(=O)Nc1ccc(NC(=O)C(Cc2ccccc2)NC(=O)C2CCCCC2)cc1 (stereo unspecified)
#21 c1ccc(COC2CCNCC2)cc1
#22 CCCc1nc(N)c(C#N)c(-c2ccc(F)cc2)c1CC
#23 CCOc1cc(C2C(C(=O)OC)=C(C)NC3=C2C(=O)c2ccccc23)ccc1O (stereo unspecified)
#24 CCCn1c(=N)c(C(=O)NC2CCCCC2)cc2c(=O)n3cc(C)ccc3nc21
Screen / compound no.	19	20	21	22	23	24
HCMV UL50-53 inh	-44.1	·	-11.1	-25.4	-121.8	-36.8
GIV Gai3 FP	107.0	102.8	103.7	85.8	108.3	104.0
Sa growth 42C	98.8	102.5	96.4	108.4	97.4	100.9
Sa growth 42C second temp	75.5	97.0	82.4	102.7	71.5	91.3

#25 CCCNC(=O)COCc1cc(-c2ccc(F)cc2)on1
#26 Cc1cc(C)n2ncc(C(=O)NCCC3=CCCCC3)c2n1
#27 Cc1ccccc1NC(=O)CCS(=O)(=O)c1cc(Br)cc2c1N(C(=O)C1CC1)CC2
#28 CCSc1ncc2c(=O)n(CC(=O)Nc3ccccc3C(=O)OC)cnc2n1
#29 Cc1ccc(S(=O)(=O)Nc2ccc(-c3csc(-c4ccccc4)n3)cc2)cc1
#30 Cc1nn(-c2ccccc2)c2c1N(CCCC(=O)NCC1CCCO1)C(=O)CS2 (stereo unspecified)
Screen / compound no.	25	26	27	28	29	30
HCMV UL50-53 inh	·	-37.4&-5.3	-2.3	-12.7	·	-16.0
GIV Gai3 FP	105.4	98.2&101.3	97.0	104.6	97.8	108.4
Sa growth 42C	115.1	90.3	127.0	·	72.7	·
Sa growth 42C second temp	87.2	82.2	91.8	·	65.2	·

#31 O=C(NCCC1=CCCCC1)c1cnsn1
#32 CNC(=O)c1ccsc1NC(=O)c1ccc(S(C)(=O)=O)cc1
#33 O=C(O)C(Cc1cnc[nH]1)N1C(=O)C2C3c4ccccc4C(c4ccccc43)C2C1=O (stereo unspecified)
#34 CCOc1ccccc1NC(=O)Cn1nnc(C(=O)NCc2ccc(F)cc2)c1N
#35 O=C1OCCC1Sc1ncnc2ccccc12 (stereo unspecified)
#36 CC1(C)NCS[C@H]1C(=O)O
Screen / compound no.	31	32	33	34	35	36
HCMV UL50-53 inh	-6.7	-31.0	-39.3	-19.3	-33.2	-20.6
GIV Gai3 FP	·	102.3	103.0	103.9	·	104.6
Sa growth 42C	118.2	97.4	92.8	101.8	79.9	91.2
Sa growth 42C second temp	78.4	94.5	88.1	85.5	73.4	89.6

#37 O=C(CN1C(=O)c2ccccc2S1(=O)=O)c1ccccc1
#38 NCCCCCc1nnc(SCC(N)=O)o1
#39 Cc1ccccc1-c1nn2c(=O)cc(CN3CCN(C(=O)c4ccc(C(C)(C)C)cc4)CC3)nc2s1
#40 O=C(CSc1ncnc2nc(N3CCSCC3)sc12)NC1CCCC1
#41 CCC(C)NC(=O)c1ccc2nc(Cc3ccccc3)oc2c1 (stereo unspecified)
#42 CCC(C(=O)N1CCCC1)n1nc(C)n2c(cc3occc32)c1=O (stereo unspecified)
Screen / compound no.	37	38	39	40	41	42
HCMV UL50-53 inh	1.8	-8.6	·	-21.7	·	-5.0
GIV Gai3 FP	103.1	107.4	100.3&100.2	102.8	102.9	101.4
Sa growth 42C	·	92.1	96.8	·	80.2	100.0
Sa growth 42C second temp	·	78.5	98.3	·	87.4	80.3

Part of the list above in order of number of heavy atoms, lowest first.
#38 NCCCCCc1nnc(SCC(N)=O)o1
#22 CCCc1nc(N)c(C#N)c(-c2ccc(F)cc2)c1CC
#18 Cc1ccc2nc(-c3ccc(S(=O)(=O)N(C)C)cc3)cn2c1
#42 CCC(C(=O)N1CCCC1)n1nc(C)n2c(cc3occc32)c1=O (stereo unspecified)
#40 O=C(CSc1ncnc2nc(N3CCSCC3)sc12)NC1CCCC1
#12 O=C(COC(=O)c1ccc(Oc2ccccc2)cc1)NCc1ccccc1
#28 CCSc1ncc2c(=O)n(CC(=O)Nc3ccccc3C(=O)OC)cnc2n1
#24 CCCn1c(=N)c(C(=O)NC2CCCCC2)cc2c(=O)n3cc(C)ccc3nc21
Screen / compound no.	38	22	18	42	40	12	28	24
HCMV UL50-53 inh	-8.6	-25.4	-20.6	-5.0	-21.7	17.6	-12.7	-36.8
GIV Gai3 FP	107.4	85.8	·	101.4	102.8	·	104.6	104.0
Sa growth 42C	92.1	108.4	109.5	100.0	·	105.8	·	100.9
Sa growth 42C second temp	78.5	102.7	85.0	80.3	·	104.1	·	91.3

#20 CC(=O)Nc1ccc(NC(=O)C(Cc2ccccc2)NC(=O)C2CCCCC2)cc1 (stereo unspecified)
#15 Cn1c(=O)c2c(-c3ccc(Br)cc3)n3c(c2n(C)c1=O)C(c1ccc(O)c(O)c1)OCC3 (stereo unspecified)
#17 O=C(c1cnn2c(C(F)(F)F)cc(-c3ccccc3)nc12)N1CCN(c2ccccc2)CC1
#19 O=C(CSc1nnc(-c2ccccn2)c(-c2ccccn2)n1)c1ccc(N2CCCC2=O)cc1
#13 CC1CCCN(CCCNC(=O)c2ccc3c(c2)N(Cc2cccc(Cl)c2)C(=O)c2ccccc2S3(=O)=O)C1 (stereo unspecified)
Screen / compound no.	20	15	17	19	13
HCMV UL50-53 inh	·	-4.5	-25.0&-16.0	-44.1	·
GIV Gai3 FP	102.8	103.2	100.2&101.1	107.0	102.4
Sa growth 42C	102.5	·	100.5	98.8	110.1
Sa growth 42C second temp	97.0	·	81.5	75.5	50.5

Further structures:
#43 Cc1ccccc1Cn1c(C)c(C2CCN(S(=O)(=O)c3cnc[nH]3)CC2)c2ccccc21
#44 N#CC1=C(SCC(=O)Nc2ccc(Br)cc2)NC(=O)CC1c1cccc2ccccc12 (stereo unspecified)
#45 O=C(CC1N=C2c3ccccc3N=C(SCc3ccccc3F)N2C1=O)NC1CCCCC1 (stereo unspecified)
#46 Cc1cccc(-c2csc(-c3nc(-c4ccccc4)no3)c2-n2cccc2)c1
#47 CN1CC=C(/C=C/C2=CC[C@H]3C[C@@H]2C3(C)C)CC1
#48 CCNC(=O)c1c(C)[nH]c(C(=O)OCC)c1C
Screen / compound no.	43	44	45	46	47	48
HCMV UL50-53 inh	-6.7	-3.6	·	-23.2	-20.5	·
GIV Gai3 FP	111.2	99.8	103.4	98.2	103.6	105.0
Sa growth 42C	·	·	59.2	·	98.7	107.5
Sa growth 42C second temp	·	·	56.7	·	85.4	88.4

#49 Nc1nnc(CCc2ccccc2)c(=O)n1N
#50 Cc1cc(C)c(C#N)c(SCc2cccnc2)n1
#51 O=C(/C=C/N1CCOCC1)c1csc(-c2ccc(C(F)(F)F)cc2)n1
#52 Cc1onc(-c2ccccc2)c1C(=O)N1CCOCC1
#53 CC1(C(=O)NC2CCCC2)Cn2c(c(-n3cccc3)c3ccccc32)C(=O)N1C1CCCC1 (stereo unspecified)
#54 CC(=O)Nc1ccc(NS(=O)(=O)c2ccc3c(c2)CCCN3C(C)=O)cc1
Screen / compound no.	49	50	51	52	53	54
HCMV UL50-53 inh	-18.8	-5.1	-42.7	-14.2	-10.1	·
GIV Gai3 FP	·	98.8	100.1	104.8	100.3	99.8
Sa growth 42C	91.2	94.0	93.6	100.4	·	101.2
Sa growth 42C second temp	88.7	80.7	87.3	76.9	·	86.7

#55 O=C(CCN1CCOCC1)Nc1ccc(Cl)cc1
#56 CCOc1ccc(CCNC(=O)CCCc2cc(-c3ccc(OCC)cc3)on2)cc1
#57 Cc1ccc(-c2noc(CNC(=O)CC3CCCCC3)n2)cc1
#58 CN(C)CCNS(=O)(=O)c1ccc2c(c1)CCN2C(=O)CCC(=O)N1CCOCC1
#59 COc1ccc(OC)c(NC(=O)c2cc(-c3ccc(Cl)s3)nc3ccccc23)c1
#60 CCC(=O)Oc1ccc(C2Nc3ccccc3-c3nnc(SC)nc3O2)cc1 (stereo unspecified)
Screen / compound no.	55	56	57	58	59	60
HCMV UL50-53 inh	-1.4	-33.6	·	-10.8	-10.0	-27.6
GIV Gai3 FP	96.5	101.3	101.0	98.7	105.1	89.7
Sa growth 42C	105.6	104.5	88.3	·	96.5	100.5
Sa growth 42C second temp	85.8	89.5	76.7	·	100.2	93.3

#61 COCCn1c(C)cc(/C=C(\C#N)C(=O)C(C)(C)C)c1C
#62 O=C(N=Nc1c(O)[nH]c2ccccc12)C1C2CCCCC21 (stereo unspecified)
#63 O=C(NCc1ccccc1)C1CCN(S(=O)(=O)N2CCCCCC2)CC1
#64 COc1ccc(CCC(=O)NCc2ccc3c(c2)CCN3C(=O)c2ccccc2)cc1
#65 COC(=O)/C=c1/sc2n(c1=O)C(C)=CC(C)(C)N=2
#66 COC(=O)c1ccc(-c2ccc(/C=C3\C(=O)N(c4cccc(C(=O)O)c4)N=C3C(F)(F)F)o2)cc1
Screen / compound no.	61	62	63	64	65	66
HCMV UL50-53 inh	-30.8	-31.7	·	·	·	-9.1
GIV Gai3 FP	·	103.1	97.5	96.9	104.0	114.3
Sa growth 42C	100.0	126.3	113.2	113.6	90.8	·
Sa growth 42C second temp	86.7	98.0	86.2	87.1	85.5	·

#67 CC1CN(c2nc3ccccc3nc2SCC(=O)Nc2ccc(F)cc2)CC(C)O1 (stereo unspecified)
#68 Cc1ccc(NC(=O)Cn2c(=O)n(Cc3ccco3)c(=O)c3ccccc32)c(C)c1
#69 Cc1cccc(NS(=O)(=O)c2ccc(C)c(C(=O)NN3CCN(C)CC3)c2)c1
#70 CC(O)c1ccc(Oc2ccc(C(C)O)cc2)cc1 (stereo unspecified)
#71 CC(C)c1ccc(OCc2nnc(SCC(=O)NC3CCCCC3C)o2)cc1 (stereo unspecified)
#72 CCOc1ccc2cc(C3CC(c4ccc(OC)cc4)=NN3)c(Cl)nc2c1 (stereo unspecified)
Screen / compound no.	67	68	69	70	71	72
HCMV UL50-53 inh	11.3	-20.2	-3.8	·	-5.8	-9.2
GIV Gai3 FP	106.4	102.1	·	106.4	99.6	142.6
Sa growth 42C	84.8	97.3	107.8	80.3	81.5	·
Sa growth 42C second temp	90.3	88.0	103.5	96.7	96.3	·

#73 N#Cc1cc2c(=O)n3ccccc3nc2n(CCc2ccccc2)c1=O
#74 COc1ccc(CCNC(=O)NCc2noc3ccc(C)cc23)c(OC)c1
#75 COc1cc(N2C(=O)c3ccccc3C2=O)c(Cl)cc1C(=O)OCC(=O)N1CCCC1
#76 Cc1ccccc1N1CCN(C(=S)c2ccc(N(C)C)cc2)CC1
#77 CCn1c(SCc2ccccc2C)nc2c(cnn2CCO)c1=O
#78 O=C(Cn1cc(/C=C2\C(=O)NC(=O)N(Cc3ccccc3)C2=O)c2ccccc21)NCc1ccco1
Screen / compound no.	73	74	75	76	77	78
HCMV UL50-53 inh	·	·	-10.9	-9.5	-15.3	-0.1
GIV Gai3 FP	112.5	100.7	·	106.1	100.7	-34.6*
Sa growth 42C	102.6	93.2	82.7	97.6	·	111.4
Sa growth 42C second temp	93.2	81.1	88.9	97.0	·	80.9
